# Anaer choline gr: blocks anaerobic gram-negative growth on choline; Gram-negative bacterium anaerobic choline minimal medium, absorbance growth; active compounds read low; many inactives read as strong as hits in the columns shown; calls only; actives 0.2% (n = 55,000); AID 1963822;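 active = growth z-score on choline under -2 at 7 or 20 h with little or no fall on glycerol, limits in tiers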;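 note: stock transfer was 300 nL into about 50 µL; the organism is E. coli; final concentration not given here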
# Anaer choline gr early: second read-out of Anaer choline gr, no call of its own (marks repeat the call); z-score; measured here: choline growth z-score, timepoint 1;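 score of optical density at 7 h as mean of two plates; lower means less growth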
# An asterisk follows results filed as active; i = inactive; & = joins results of further samples. An excerpt; count on the stated rates, not on these rows.
Anaer choline gr | Anaer choline gr early | Molecule
i | -1.06 | CCC(CC)C(=O)OCc1cc(=O)n2nc(C)sc2n1
i | -0.26 | CC(=O)N1CCCc2cc(S(=O)(=O)N3CCC(C(=O)Nc4cccnc4)CC3)ccc21
i | 0.51 | CCCCNC(=O)c1cc2cc(OCC)ccc2n1C
i | 1.29 | CCSc1nc2cc(-c3ccccc3)sc2c(=O)n1C
i | 1.64 | Brc1cccc(CSc2nccn3nc(-c4ccccc4)cc23)c1
i | 0.21 | Cn1c(=O)n(CC(=O)N2CCCC2)c(=O)c2cc(S(=O)(=O)NC3CCCCC3)ccc21
i | 0.57 | Clc1ccc(-c2csc(Cc3nc(-c4ccccc4)no3)n2)cc1
i | -0.12 | CCN1CCN(c2nc3ncn(CC(N)=O)c(=O)c3s2)CC1
i | 0.03 | CCCOc1ccc(CNC(=O)c2cccc(-c3cc(Oc4ccccc4OC)ncn3)c2)cc1
i | -1.54 | O=C1CCc2cc(S(=O)(=O)NC(Cc3ccccc3)C(=O)N3CCN(c4ccccn4)CC3)ccc2N1 (stereo unspecified)
i | 0.99 | CCc1nc(-c2cc(S(=O)(=O)Nc3ccccc3Br)c(C)s2)cs1
i | -1.04 | O=S(=O)(c1ccc(Br)s1)N1CCCCC1
i | 0.1 | O=c1cc(CN2CCN(CCO)CC2)nc2nc(NCc3ccc(Cl)cc3)[nH]n12
i | -1.1 | COc1ccc(CN2C(=O)c3cccnc3C2=O)cc1S(=O)(=O)N1CCN(c2ccccc2)CC1
i | 0.48 | CCCCN(CC)c1ccc2nnc(CCc3nc(-c4ccncc4)no3)n2n1
i | -0.81 | O=C(CCC(=O)N1CCc2cc(S(=O)(=O)NCCC3=CCCCC3)ccc21)N1CCOCC1
i | -0.11 | Cc1cc2c(cc1C)NC1(CCCCC1)C(=NCc1cccc(F)c1)N2
i | 1.98 | CCN(CC)S(=O)(=O)c1ccc2c(c1)cc(C(=O)NCCc1c[nH]c3ccc(Cl)cc13)n2C
i | 0.38 | CC(C)c1cc(C2CCCN2Cc2cccs2)no1 (stereo unspecified)
i | -0.13 | O=C(CSc1nc2c(sc3ccccc32)c(=O)n1C1CCN(Cc2ccccc2)CC1)NC1CCCC1
i | -0.07 | CN1CCc2c(sc3c2CN(C(=O)NC2CCCCC2)C(c2ccccc2)c2cccn2-3)C1 (stereo unspecified)
i | -0.9 | Cc1ccc(-n2nc3c(N4CCC(C(=O)NCc5cccnc5)CC4)nnc(C)c3c2C)cc1
i | -0.34 | O=C(c1ccncc1)N1CCC(c2nc(-c3ccc(F)cc3)no2)CC1
i | 1.62 | CN[C@@H]1[C@H](O[C@H]2[C@H](O[C@@H]3[C@@H](O)[C@H](O)[C@@H](N=C(N)N)[C@H](O)[C@H]3N=C(N)N)O[C@@H](C)[C@]2(O)CO)O[C@@H](CO)[C@H](O)[C@H]1O
i | -0.46 | COc1ccc(NC(=O)CSc2nc3c([nH]c4ccccc43)c(=O)n2C)c(OC)c1
i | -0.63 | COCCCNC(=O)N1Cc2c(sc3c2CCN(C)C3)-n2cccc2C1c1ccc(Cl)cc1 (stereo unspecified)
i | 0.76 | CCOc1ccc2c(c1)NC(c1ccccc1)=NC(c1ccc(F)cc1)=N2
i | 1.15 | Cc1csc(-c2cc(S(=O)(=O)NCCC3=CCCCC3)cn2CC(=O)N2CCCC2)n1
i | 0.87 | COc1ccc(CCNC(=O)c2ccc(CN3CCc4ccccc4C3)cc2)cc1OC
i | -0.1 | Cn1c(=O)n(C)c2cc(S(=O)(=O)Nc3ccc(F)cc3F)c(Cl)cc21
i | 0.01 | O=C(NCCCN1CCCCC1)C1CCN(c2ncc(-c3ccccc3)cn2)CC1
i | -0.45 | CN(Cc1ccccc1)Cc1cc(=O)n2[nH]c(-c3ccc(Cl)cc3)nc2n1
i | -1.51 | CCn1c(SCC(=O)N2CCc3ccccc32)nnc1-c1cc2ccccc2o1
i | -0.14 | CCCN1CCN(C(=O)C2CCCN(S(=O)(=O)c3cn(CC)cn3)C2)CC1 (stereo unspecified)
i | 0.51 | Brc1ccc(-c2ccc(SCc3nc(-c4ccccc4)no3)nn2)cc1
i | 0.87&0.28&0.38&0.32 | COC(=O)[C@@H]1[C@H]2C[C@H]3c4[nH]c5ccccc5c4CCN3C[C@@H]2CC[C@@H]1O
i | 0.58 | CC1(C)C(=O)N(CC(=O)N2CCCCC2)c2ccccc21
i | 0.19 | Cc1ccc(CNC(=O)NCC2CCN(Cc3cc(C)ccc3C)CC2)cc1
i | 0 | Cn1c(=O)c2c3c(cnc2n(C)c1=O)C(=O)CCC3
i | -0.72 | Cn1cnc(S(=O)(=O)N2CCC(C(=O)NCc3ccc(Cl)cc3)CC2)c1
i | -0.81 | O=C(CN1c2ccc(F)cc2-c2ccccc2S1(=O)=O)N1CCCC1
i | 0.83 | CCn1nnc(NCc2ccc(-c3ccc(C)c(Cl)c3)o2)n1
i | 1.28 | OCCN1CCN(CC/C=C2/c3ccccc3Sc3ccc(C(F)(F)F)cc32)CC1
i | 1.13 | CCCN1C(SCC(=O)Nc2ccccc2CC)=NS(=O)(=O)c2ccccc21
i | 0.31 | CC/C=C\C/C=C\C/C=C\CCCCCCCC(=O)O
i | 0.19 | CCC(NC(=O)C1CC(=O)N(c2ccc3c(c2)CCN3C(C)=O)C1)c1cccs1 (stereo unspecified)
i | -0.08 | Cn1c(NC(=O)C2c3ccccc3Oc3ccccc32)cc(=O)n(C)c1=O
i | -0.26 | CC(C)N1CCn2c(nc3cc(NS(C)(=O)=O)ccc32)C1
i | -0.72 | O=C(Cn1cnc2c(nc3n2CCCCC3)c1=O)N1CCN(c2ccccc2)CC1
i | 1 | CCOC(=O)Cn1c(=O)c2cnc(-c3ccccc3)nc2n(CC)c1=O
i | 0.44 | Cc1cc2n(n1)CC(C)(C(=O)NCc1ccccc1)N(c1ccccc1C)C2=O (stereo unspecified)
i | -0.68 | CN(C)CCC1(c2ccc(Cl)cc2)Cc2ccccc2C(=O)O1 (stereo unspecified)
i | -1.44 | CC1CCN(S(=O)(=O)c2ccc(-c3nnc(C(C)C)o3)o2)CC1
i | 0.77 | COc1cc(OC)c(NS(=O)(=O)c2cc(-c3cc(C(F)(F)F)on3)sc2C)cc1Cl
i | 1.47 | CCC(C)NC(=O)c1cc2n(n1)CC(C)(C(=O)NC1CCCC1)N(C)C2=O (stereo unspecified)
i | 1.51 | COc1ccc(Cl)cc1NC(=O)c1cncc(-c2cccc(C)c2)c1

# Part of the list above, with each value named.
> COc1ccc(Cl)cc1NC(=O)c1cncc(-c2cccc(C)c2)c1
  Anaer choline gr: i
  Anaer choline gr early: 1.51
> COc1cc(OC)c(NS(=O)(=O)c2cc(-c3cc(C(F)(F)F)on3)sc2C)cc1Cl
  Anaer choline gr: i
  Anaer choline gr early: 0.77
> CN(C)CCC1(c2ccc(Cl)cc2)Cc2ccccc2C(=O)O1 (stereo unspecified)
  Anaer choline gr: i
  Anaer choline gr early: -0.68
> Cc1cc2n(n1)CC(C)(C(=O)NCc1ccccc1)N(c1ccccc1C)C2=O (stereo unspecified)
  Anaer choline gr: i
  Anaer choline gr early: 0.44

# Next section
Anaer choline gr | Anaer choline gr early | Molecule
i | -1.33 | Cc1ccc(N2CC(c3nnc(NC(=O)c4c(-c5ccccc5)noc4C)s3)CC2=O)cc1Cl (stereo unspecified)
i | 0.62 | O=C(Nc1cccc(F)c1)c1cc2ccccc2c(=O)s1
i | 0.26 | Cc1ccc2nc(NCc3ccc(C(=O)O)cc3)c3nnnn3c2c1
i | -0.85 | CCOC(=O)c1[nH]c(C)c(S(=O)(=O)NC(C)CC)c1C (stereo unspecified)
i | 0.84 | Cc1nn(-c2ccc(Cl)cc2)c2sc(C(=O)Nc3ccccc3F)cc12
i | -1.29 | COc1cc(OC)cc(C(=O)N2CCN(c3nc4ccccc4cc3-c3noc(C)n3)CC2)c1
i | -1.18 | CCOC(=O)c1c(C)[nH]c(C)c1S(=O)(=O)N1CCC(C(=O)NCc2cccnc2)CC1
i | -0.3 | COc1ccc(NC(=O)Cn2cnc3ccc(S(=O)(=O)N4CCC(C)CC4)cc3c2=O)cc1OC

# In the list so far, these have a COOH group.
Anaer choline gr | Anaer choline gr early | Molecule
i | 0.31 | CC/C=C\C/C=C\C/C=C\CCCCCCCC(=O)O
i | 0.26 | Cc1ccc2nc(NCc3ccc(C(=O)O)cc3)c3nnnn3c2c1

# (more compounds)
Anaer choline gr | Anaer choline gr early | Molecule
i | 0 | CCC(C)NC(=O)c1ccc(Cn2c(=O)c3cc(OC)c(OC)cc3n(CC(N)=O)c2=O)cc1 (stereo unspecified)
i | 1.26 | CCCCNC(=O)CN1C(=O)C(C)CSc2ccc(S(=O)(=O)N3CCOCC3)cc21 (stereo unspecified)
i | 0.76 | COc1ccc(C(=O)Nc2cc3c(cc2Sc2ccccc2)n(C)c(=O)c(=O)n3C)cc1
i | 0.27 | Cn1c(NC(=O)c2cccc(Br)c2)cc(=O)n(C)c1=O
i | -0.33 | CNC(=O)CN1c2ccccc2NC2=C(C(=O)CC(C)(C)C2)C1c1ccc(C)cc1 (stereo unspecified)
i | 0.26 | CN(CC(=O)N1CCN(c2ccccc2)CC1)S(=O)(=O)c1c[nH]c(C(=O)N2CCCC2)c1
i | 0.54 | Clc1ccc(Oc2ccc(Nc3c4c(nc5ncnn35)CCC4)cc2)cc1
i | -2.54 | COc1cccc(-c2noc(NC3CC3)n2)c1OC
i | -1.37 | O=C(CC1CCCC1)NCc1c(-c2ccc(F)cc2)nc2n1CCS2
i | -0.04 | COc1ccc(OC)c(C2Nc3ccc(C)cc3[C@H]3OCC[C@@H]23)c1 (stereo partly specified)
i | -0.1 | Cc1nc(N2CCCC(C(=O)NC3CCCCC3)C2)c2c(C)c(C)oc2n1 (stereo unspecified)
i | 0.03 | Cc1ccc(CNC(=O)C2CCN(c3nc4ccccc4n(C)c3=O)CC2)cc1
i | 0.94 | Cc1[nH]c2ccccc2c1C(=O)C(=O)NC1CC(=O)N(c2ccc3c(c2)OCCO3)C1 (stereo unspecified)
i | -0.42 | O=C(Nc1cc(F)ccc1F)c1nc(N2CCCCC2)c2oc3ccccc3c2n1
i | -0.54 | CCn1c(SCc2ccccc2F)nnc1-c1ccc2c(c1)OCCCO2
i | 1.03 | CCc1cc(C(Nc2nc(C)cc(C)n2)c2ccc(C)cc2)c(NC(=O)c2ccccc2)s1 (stereo unspecified)
i | 0.38 | CC(=O)Nc1ccc(-c2noc(C3CCCN(C(=O)c4cc5ccccc5[nH]4)C3)n2)cc1 (stereo unspecified)
i | -0.3 | CC(C)c1cc(C2CCCN2C(=O)Nc2ccc3c(c2)OCO3)on1 (stereo unspecified)
i | -1.12 | CC(=O)N1CCc2cc(S(=O)(=O)CCC(=O)Nc3ccc(Cl)cc3C)ccc21
i | 0.32 | CS(=O)(=O)N[C@H]1C[C@@H]2C[C@H]1N(C(=O)c1ccc3c(c1)OCO3)C2
i | 1.31 | O=S(=O)(c1cc(-c2nnc(C3CC3)o2)co1)N1CCN(c2ccccc2)CC1
i | -0.25 | CCc1ccc(-c2[nH]nc3c2C(c2ccc(N(C)C)cc2)C2=C(CC(C)(C)CC2=O)N3)cc1 (stereo unspecified)
i | 0.13 | O=C(CSc1ncc(CO)n1CC(=O)NC1CC1)Nc1ccc(Br)cc1
i | -0.8 | CCOC(=O)c1noc2ncnc(Nc3ccccc3OC)c12
i | 0.18 | O=C(CCc1nc(N2CCCCC2)c2c(-c3ccc(F)cc3)noc2n1)NCc1ccccc1Cl
i | 0.23 | Cc1ccc(N2C(=O)c3ccccc3C2=O)nc1
i | -0.57 | O=C(CSc1nnc(-c2cc3ccccc3n2-c2ccccc2)o1)Nc1nccs1
i | -0.42 | CC(C)CNC(=O)CN1CCN(c2cc(C(=O)O)c3cc(NC(=O)C(C)(C)C)ccc3n2)CC1
i | -0.14 | Cc1ccc(-c2n[nH]c(CCNC(=O)NC(C)(C)C)n2)cc1
i | -0.04 | CCOC(=O)C1CCN(c2c(Nc3cc(C)[nH]n3)c(=O)c2=O)CC1
i | -1.52 | Cc1ccc2[nH]cc(CCNC(=O)c3cccc(NC(=O)c4nnc(C5CC5)s4)c3)c2c1
i | -0.15 | Cc1nn(-c2ccc3nncn3n2)c(C)c1CCC(=O)Nc1cccnc1
i | 1.2 | COc1ccc(-c2csc(Nc3ccc(C)cn3)n2)cc1
i | -0.88 | Cc1cc(=O)c2cc(C(=O)Nc3ccc(F)cc3)ccc2[nH]1
i | -2.31 | O=C(CCCn1nnc2cc(S(=O)(=O)N3CCCC3)ccc21)N1CCN(c2ccccn2)CC1
i | 1.14 | COc1ccc(-c2noc(-c3scc(-c4cccc(C)c4)c3-n3cccc3)n2)c(OC)c1
i | -0.38 | O=S(=O)(c1cn(Cc2noc(/C=C/c3ccccc3Cl)n2)cn1)N1CCCCC1
i | -1.28 | CC(C)C[C@H](NC(=O)N1CCCCCC1)C(=O)N[C@H](Cc1cn(C)c2ccccc12)C(=O)N[C@H](Cc1ccccn1)C(=O)O
i | -0.86 | CCOc1ccc(N2C(=O)CN(Cc3ccc(OC)cc3)[C@H]3CS(=O)(=O)C[C@H]32)cc1
i | -0.15 | Cn1c(N2CCN(C(=O)c3[nH]nc4c3CCc3ccccc3-4)CC2)cc(=O)n(C)c1=O
i | 1.25 | COc1ccc(S(=O)(=O)N2CCc3cc4cccc(C)c4nc32)c(C)c1
i | 0.4 | Cc1nc2nc(-c3ccccc3)nn2c(Sc2ccccc2N)c1C
i | 0.26 | CCn1cc2c(c1-c1ccc(Cl)cc1)c(=O)n(C)c(=O)n2C
i | -0.45 | Cc1cc(C2CCCN2C(=O)NC2CCCCC2)no1 (stereo unspecified)
i | -0.8 | O=C(NC1CCN(C(=O)C2CC2)C1)C1CCC1 (stereo unspecified)

# Complete entries from above. Order of values: Anaer choline gr	Anaer choline gr early
# COc1ccc(S(=O)(=O)N2CCc3cc4cccc(C)c4nc32)c(C)c1 is entered as i	1.25
# O=C(NC1CCN(C(=O)C2CC2)C1)C1CCC1 (stereo unspecified) is entered as i	-0.8
# Cc1cc(C2CCCN2C(=O)NC2CCCCC2)no1 (stereo unspecified) is entered as i	-0.45

# From PubChem BioAssay
